PK Bst: alters activity of Bacillus stearothermophilus pyruvate kinase; Potency, µM; partly purified Bacillus stearothermophilus pyruvate kinase, luminescence ATP production; ribose 5-phosphate activator present at AC10; actives 1.2% (n = 51,000); in the data active means potency below about 11 µM; inconclusive means mostly about 12 µM to 25 µM; inactive means weaker than that;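 the screen sought inhibitors and activators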;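 also: potency is read from the fitted curve at half-maximal effect; scaled between full activation by ribose 5 phosphate and full inhibition by luteolin; about four in five hits inhibit and the cells do not say which; series up to 57 µM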
TsaE inh: displaces an ADP probe from E. coli YjeE (TsaE). purified YjeE, fluorescence polarisation of a bound ADP probe. Potency, µM. actives 0.05% (n = 71,000). AID 605; active = well fitted falling curve; inconclusive = weaker or top-dose-only fall, or a rising curve; inactive = flat or poorly fitted curve;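 also: top concentration of the series not given in the record; excess ADP was the control for the full effect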
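Purified YjeE (10 uM) with BODIPY Texas Red-labeled ADP probe (2 uM); compounds pin-transferred, 15 min at room temperature. Binding inhibition read as decreased fluorescence polarization; ADP titration as control.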
Active calls of the source: *; i = inactive; ? = inconclusive; . = not tested or not shown. A portion of the library; count on the stated rates, not on these rows.

SMILES	PK Bst	TsaE inh
CCn1nnc(-c2ccccc2NC(=O)c2cc(OC)cc(OC)c2)n1	>57	i
CCCCCCOC(=O)NCC(O)c1ccccc1 (stereo not given)	.	i
CC(C)C(OC(=O)c1ccco1)C(=O)NCc1ccco1 (stereo not given)	>57	i
CCOc1ccc(S(=O)(=O)Nc2ccc(Cl)cn2)c(C)c1C	>57	i
COc1ccc(CCNS(=O)(=O)c2ccccc2)cc1OC	>57	i
Cn1c(=O)c2c(ncn2CC(=O)NCc2cccnc2)n(C)c1=O	.	i
CCN1CCN(Cc2ccc(NC(=O)Nc3ccccc3)cc2)CC1	.	i
Cc1ccc(-c2cc(C(F)(F)F)n3ncc(C(=O)O)c3n2)cc1	>57	i
CCCN(CCC)C1CC(=O)N(Cc2ccccc2)C1=O (stereo not given)	>57	i
COc1ccc(S(=O)(=O)N2CCN(C(=O)COc3ccc4c(C)cc(=O)oc4c3)CC2)cc1	>57	i
COC(=O)CCC(=O)Oc1ccc(OC(=O)CCC(=O)OC)cc1	.	i
CCN(CC)CCNC(=O)COc1ccc(OC)cc1	.	i
CC(C)CN(CC(C)C)S(=O)(=O)N1CCC(C(=O)NCc2ccc(F)cc2)CC1	>57	i
COCc1cc(C)nc(SCC(=O)c2ccc(O)c(O)c2)c1C#N	>57	i
Cc1c(C(=O)OC(C)C)[nH]c2c1C(=O)CCC2	>57	i
COc1ccc(CNc2ccnc(-c3ccccc3Cl)n2)c(OC)c1	.	i
COc1cccc(C(c2sc3nc(C)nn3c2O)N2CCc3ccccc3C2)c1 (stereo not given)	.	i
O=c1n(-c2ccccc2)c(=O)n2n1CCCC2	>57	i
Clc1ccccc1-c1cc(NCc2cccnc2)ncn1	.	i
Cc1ccc(CNC(=O)c2cc3c(=O)n4cccc(C)c4nc3n(CC3CCCO3)c2=N)cc1 (stereo not given)	>57	i
O=CN1CCN(C[C@H](O)CN2CCCCC2)CC1	.	i
CS(=O)(=O)CCC(C(=O)N1CCOCC1)N1C(=O)c2cc(Cl)c(Cl)cc2C1=O (stereo not given)	>57	i
CCCc1cc(N2CCCC(C(=O)Nc3c(OC)cccc3OC)C2)n2ncnc2n1 (stereo not given)	>57	i
COc1ccc(-c2cc(=O)c3ccc(O)cc3o2)cc1	.	i
CCCCC(=O)Nc1cccc(NC(=O)CC)c1	>57	i
CCOC(=O)C1=C(C)OC(N)=C(C#N)C1C1CCCCC1 (stereo not given)	.	i
N#Cc1ccccc1NC(=O)Nc1cccc(Cl)c1	.	i
O=C(NCc1ccco1)C1CCN(c2ccc(N3CCOCC3)nn2)CC1	.	i
CC1(C)CC(=O)C(C=NCCN2CCN(C(=O)CC3CCCC3)CC2)=C(O)C1	.	i
CN(CC(=O)NCc1cccs1)S(=O)(=O)c1cccc2cccnc12	.	i
COc1ccc(CCNc2oc(-c3ccc(C)cc3)nc2C#N)cc1OC	.	i
O=C(N1CCCCC1)C12CC3CC(C1)CC(C(=O)N1CCCCC1)(C3)C2	>57	i
CCCCC(=O)NC(Nc1nc(C2CC2)cs1)(C(=O)OCC)C(F)(F)F (stereo not given)	>57	i
COC(=O)CSc1nc(C2CC2)cc(C(F)(F)F)c1C#N	>57	i
CC1(C(=O)O)CCC(C(=O)Nc2ccc(S(N)(=O)=O)cc2)C1(C)C (stereo not given)	.	i
COc1ccc(-c2nc(N)n[nH]2)cc1OC	>57	i

Arranged by count of non-hydrogen atoms (falling): 4 of the compounds above
SMILES	PK Bst	TsaE inh
COc1ccc(CCNc2oc(-c3ccc(C)cc3)nc2C#N)cc1OC	.	i
CN(CC(=O)NCc1cccs1)S(=O)(=O)c1cccc2cccnc12	.	i
CCCCC(=O)Nc1cccc(NC(=O)CC)c1	>57	i
COc1ccc(-c2nc(N)n[nH]2)cc1OC	>57	i

Going on with the list:
SMILES	PK Bst	TsaE inh
COc1ccccc1N1CCN(C(=O)c2ccc(C(C)(C)C)cc2)CC1	>57	i
CCOc1ccc(OCc2ccc(C(=O)NCC3CCCO3)o2)cc1 (stereo not given)	>57	i
CCN(CC)C(=O)CSc1nnc(-c2cc3ccccc3cc2O)n1CC	>57	i
CCn1c(=O)cc(OCC(=O)NCc2ccco2)c2ccccc21	>57	i
CNC(=O)CSc1nnc(-c2cc(C)cc(C)c2)o1	>57	i
COc1ccc(OC)c(C(c2nnnn2Cc2ccccc2)N2CCN(C3CCCCC3)CC2)c1 (stereo not given)	>57	i
CCc1nc(NCC2CCCO2)c2oc3ccccc3c2n1 (stereo not given)	>57	i
Cc1cc(C)c(C#N)c(SCC(O)CS(=O)(=O)Cc2ccccc2)n1 (stereo not given)	>57	i
Cc1[nH]c2ccccc2c1SCC(=O)N1CCOCC1	.	i
Cc1cc(C(=O)CSc2n[nH]c(N)n2)c(C)n1-c1cc(F)ccc1F	>57	i
c1ccc2c(-c3nc4ncccc4o3)cccc2c1	.	i
Cn1c(=O)c2c(nc(CN3CCN(c4ccc(F)cc4)CC3)n2CCN2CCOCC2)n(C)c1=O	>57	i
COC(=O)c1nc(C(=O)OC)c(C(=O)OC)nc1C(=O)OC	>57	i
CC1(C)Oc2ccc3ccc(=O)oc3c2/C(=C/Nc2ccccn2)C1=O	.	i
O=C(Nc1ccc(CCC(=O)N2CCCC2)cc1)c1ncn[nH]1	>57	i
Cc1cnc(NC(=O)CSc2nnc(-c3ccccc3)n2Cc2ccccc2)s1	>57	i
COc1ccc(CCNS(=O)(=O)c2ccc3c(c2)OCCO3)cc1OC	.	i
Cc1csc(SC(C)C(=O)Nc2ccc(S(=O)(=O)N3CCCC3)cc2)n1 (stereo not given)	>57	i
CCn1c2c(c3ccc(OC)cc31)CCCC2=O	>57	i
O=C(OCc1nc2ccccc2s1)c1cccc(S(=O)(=O)N2CCOCC2)c1	.	i
CCOC(=O)c1sc(NC(=O)c2ccc(S(=O)(=O)N3CCOCC3)cc2)cc1C	>57	i
CSc1nnc(-c2sc3cc(Cl)ccc3c2Cl)n1C	>57	i
CCOC(=O)CC12CN3CN(C1)CC(CC(=O)OCC)(C3)C2=O	>57	i
COc1ccc2c(=O)c3c(=O)n(Cc4ccco4)c(-c4ccc(C)cc4)nc3oc2c1	>57	i
CN(Cc1ccccc1)Cc1nc2c(c(=O)n(C)c(=O)n2C)n1CCc1ccccc1	>57	i
CCCn1c(SCC(=O)N2CCc3ccccc32)nnc1-c1ccco1	>57	i
CS(=O)(=O)N(CC(=O)NCc1ccncc1)c1cc(Cl)cc(Cl)c1	.	i
CCOC(=O)c1ccccc1NC(=O)CC1SC(=NC)N(C)C1=O (stereo not given)	>57	i
CC(=O)Nc1ccc(S(=O)(=O)N(CC(=O)O)Cc2ccccc2)cc1	.	i
CCC(=O)Nc1c(C#N)c2nc3ccccc3nc2n1-c1ccc(C)cc1	>57	i
Cc1nn(-c2ccccc2)c(C)c1C(=O)OCC(=O)NC(=O)NC1CCCCC1	>57	i
CCOC(=O)COc1ccc2c(c1)C(=O)CC(C)(C)O2	>57	i
CCOCCCNC(=O)CCNS(=O)(=O)c1ccc(C)cc1	>57	i
Cc1ccc2oc(=O)c3cnn(CC(=O)NC4CCCCC4C)c3c2c1 (stereo not given)	.	?
c1csc(-c2noc(COc3ccc4c(c3)CCCC4)n2)c1	>57	i
CCC(=O)Nc1ncnc2ncn(C(=O)CC)c12	.	i

Compounds listed so far with a cyano group (7):
SMILES	PK Bst	TsaE inh
COCc1cc(C)nc(SCC(=O)c2ccc(O)c(O)c2)c1C#N	>57	i
CCOC(=O)C1=C(C)OC(N)=C(C#N)C1C1CCCCC1 (stereo not given)	.	i
N#Cc1ccccc1NC(=O)Nc1cccc(Cl)c1	.	i
COc1ccc(CCNc2oc(-c3ccc(C)cc3)nc2C#N)cc1OC	.	i
COC(=O)CSc1nc(C2CC2)cc(C(F)(F)F)c1C#N	>57	i
Cc1cc(C)c(C#N)c(SCC(O)CS(=O)(=O)Cc2ccccc2)n1 (stereo not given)	>57	i
CCC(=O)Nc1c(C#N)c2nc3ccccc3nc2n1-c1ccc(C)cc1	>57	i

Next results.
SMILES	PK Bst	TsaE inh
CCCOc1ccc(C(=O)NCCC(=O)NCCCC(=O)OCC)cc1	.	i
Cc1cc(C(=O)COC(=O)CCC(=O)c2ccc3c(c2)OCCO3)c(C)n1Cc1ccco1	>57	i
O=C(CSc1nc2ccccc2o1)NCc1ccc2c(c1)OCO2	.	i
O=C(CSc1nnc(Cc2cccs2)n1-c1ccccc1)NC1CCCCC1	>57	i
CCCN1CCN(CCCNC(=O)Cn2nc(-c3ccc(Cl)cc3)ccc2=O)CC1	>57	i
O=S(=O)(c1ccc(Cl)cc1)N1CCN(c2ccc(N3CCOCC3)nn2)CC1	>57	i
O=C(CSc1nc(O)cc(=O)[nH]1)C1CC1	.	i
CN1CCc2c(sc3c2C(=O)NC(/C=C/c2ccco2)N3)C1 (stereo not given)	.	i
CN(c1ccc(Cl)cc1)c1cc(=O)n(C)c2ccccc12	.	i
O=C(NC(NC1CCS(=O)(=O)C1)C(=O)c1cccs1)c1ccccc1 (stereo not given)	>57	i
CCOC(=O)/C(C#N)=C(\N)C(C)C(=O)Nc1ccccn1 (stereo not given)	>57	i
CCOc1ccc(-n2c(=O)cc(N3CCN(c4ccc(F)cc4)CC3)[nH]c2=O)cc1	>57	i
c1coc(CNc2c3c(nc4ncnn24)CCC3)c1	>57	i
O=C(c1ccncc1)N1CCC2(CCCN(c3ccccn3)C2)CC1	.	i
Cc1ccc(S(=O)(=O)N2CC3CCC2C3)cc1 (stereo not given)	>57	i
CC[C@@H]1Cc2cc(O)ccc2C2=C1c1ccc(O)cc1C[C@H]2CC	.	i
COC(=O)C1=C(C)NC(C)=C(C(=O)OCCN(C)Cc2ccccc2)[C@H]1c1cccc([N+](=O)[O-])c1	.	i
CC(=O)c1cccc(NC(=O)c2cc(-c3ccc(C)cc3)on2)c1	>57	i
COc1cc2c(cc1OC)C(=NCCC(=O)O)NC(C)(C)C2	>57	i
COc1ccccc1-c1c(C)nn2c(N3CCC4(CC3)OCCO4)cc(C)nc12	>57	i
Cc1cc(=O)oc(C)c1C(=O)NCCCN1CCN(c2ccccc2F)CC1	>57	i
Oc1ccccc1NCC(O)Cn1ccc2ccccc21 (stereo not given)	>57	i
Cc1ccccc1NC(=O)NCCc1nc2ccccc2[nH]1	>26	.
COc1ccc(NC2CC(=O)N(c3ccccc3)C2=O)cc1 (stereo not given)	>11	i
COc1cc2c(C(=O)N3CCN(Cc4ccc5c(c4)OCO5)CC3)cn(C)c(=O)c2cc1OC	>57	i
CCn1c2ccccc2c2nnc(SCCCn3c(=O)[nH]c4ccccc43)nc21	.	i
O=C(CCc1n[nH]c(=O)[nH]c1=O)N1CCCCC1	.	i
COc1ccc(CNC(=O)c2cnc3scc(C)n3c2=O)cc1	.	i
CCOC(=O)c1cc(-c2ccc3c(c2)OCO3)nc2onc(C)c12	>57	i
O=C(Nc1ccccc1C(=O)NC1CCCC1)NC1CCCC1	>57	i
O=C(c1cc(-c2ccccc2)nc2ccccc12)N1CCOCC1	.	i
O=C(CCNC(=O)c1ccc(Br)o1)NCc1ccccn1	>57	i
CC1(C)CC(=O)N(CC(=O)O)c2ccccc2S1(=O)=O	.	i
COC(=O)Nc1nn(Cc2ccccc2F)cc1Br	>57	i
NC(=O)c1oc2ccccc2c1NC(=O)CN1CCCCC1	.	i
O=C(c1ccncc1)N(Cc1ccccc1)Cc1nc2ccccc2c(=O)[nH]1	>57	i
Cc1cccn2c(=O)c3cc(C(=O)N4COCC4(C)C)n(C)c3nc12	>57	i
COC(=O)CC1SC(=O)NC1=Nc1ccccc1 (stereo not given)	.	i
Cc1c(NC(=O)NCCN2C(=O)C3C4C=CC(C4)C3C2=O)c(=O)n(-c2ccccc2)n1C (stereo not given)	.	i
O=C(OCN1C(=O)c2ccccc2C1=O)c1ccco1	.	i
O=C(CCCNS(=O)(=O)c1cccs1)N1CCN(c2cccc(Cl)c2)CC1	>57	i
NC(=O)Cn1c(=O)oc2ccccc21	>57	i
CCCC(=O)N(c1ccc2oc(=O)sc2c1)S(=O)(=O)c1cccs1	>57	i
CCOC(=O)COc1ccc2nsnc2c1Cl	>57	i
COC(=O)c1cc2c(C)nn(-c3ccccc3)c2s1	>57	i
O=C(O)c1cccc(Cn2cccn2)c1	>57	i
CN(Cc1ccco1)c1ccnc(-c2ccccc2C(F)(F)F)n1	.	i
COC(=O)c1ccccc1NC(=O)CCNC(=O)Cn1cnc2ccccc2c1=O	>57	i

Continued, overlapping the part above by 2 compounds.
SMILES	PK Bst	TsaE inh
CN(Cc1ccco1)c1ccnc(-c2ccccc2C(F)(F)F)n1	.	i
COC(=O)c1ccccc1NC(=O)CCNC(=O)Cn1cnc2ccccc2c1=O	>57	i
Cc1cc(NC(=O)CSc2nc(-c3ccc(F)cc3)cs2)no1	>57	i
CCOc1ccc(NCC2CCOC(C)(C)C2)cc1 (stereo not given)	>57	i
CC(C)(C)NC(=O)CSc1nncn1NCc1ccccc1	>57	i
CCCCCOC(=O)CSc1nnc(-c2ccccc2)c(=O)[nH]1	>57	i
COc1ccc(CCNC(=O)c2cc3c(=O)n4cccc(C)c4nc3n(Cc3ccncc3)c2=N)cc1	>57	i
CN(C1CCCCC1)S(=O)(=O)c1ccc(NC(=O)c2ccc(Br)o2)cc1	>57	i
CCOC(=O)Nc1ccc2c(c1)N(C(=O)CCN1CCOCC1)c1ccccc1S2=O (stereo not given)	>57	i
Nc1nc(NC(=O)c2ccco2)nn1-c1ccccc1	.	i
O=C(COC(=O)c1ccccn1)Nc1cccc(Cl)c1Cl	?	i
